TRPML1 ag – agonists of human TRPML1 channel; Q9GZU1; TRPML1-expressing cells, Ca2+ dye fluorescence, FDSS; host cell line not named in the record; reference of the full effect not given here; activation, % (concentration not given with the values); hit rate 0.12% among 410,000; in the data active = activation above about 50%; inconclusive = about 30% to 50%; inactive = below about 30%; note: 0% is about no effect; the text of the record puts the active cut at 80%
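Agonist activity was taken from a 110 s kinetic Ca2+ dye read on the FDSS after pinning compounds onto TRPML1-DL cells. The cells were seeded at 1,500/well with Tet inducer, incubated about 16 h, then dye-loaded at room temperature.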
ClpP mod – qHTS Assay for Activators of ClpP; purified B. subtilis ClpP, FRET peptide cleavage, 20 min; Potency, µM (series often up to 57.5 µM), for inactives: at the highest dose activity change, negative = active; hit rate 1.9% among 340,000; AID 651965, 2013; active = well fitted falling curve with a large enough effect; inconclusive = small, poorly fitted or top-dose-only effect; inactive = no such curve, though single readings can be large or run the other way; note: potency is the fitted concentration of half-maximal effect; the source files actives as falling curves though it sought activators and does not explain the sign; nearly all actives have a fitted effect of over 65% in size; many hits overshoot -100%
Target sequence (P80244 whole entry, looked up): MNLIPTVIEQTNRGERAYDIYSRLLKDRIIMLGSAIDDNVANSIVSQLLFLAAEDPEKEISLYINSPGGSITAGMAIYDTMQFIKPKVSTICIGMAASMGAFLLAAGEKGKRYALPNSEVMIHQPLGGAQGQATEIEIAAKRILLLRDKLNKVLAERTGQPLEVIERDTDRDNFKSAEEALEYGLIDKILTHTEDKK
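Purified B. subtilis ClpP, 10 microg/mL final in Tris/HCl pH8 with KCl, BSA, glycerol and Tween-20, cleaved an Abz/nitrotyrosine-quenched decapeptide. Fluorescence (ex 320, em 430) was read at 0 and 20 min at room temperature. Delta was normalized to 5.8 microM ADEP and DMSO/no-enzyme controls.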
TRPV1 potentiator – enhances activation of the human vanilloid receptor TRPV1 | Q8NER1 | TRPV1-expressing cells, Fluo-8 calcium influx, capsaicin EC20 potentiation; host cell line not named in the record; control for the full effect not named in the record | potentiation, % at 8.33 µM | hit rate 0.02% among 320,000; active means potentiation above 80%; inconclusive means 30% to 80%; inactive means below 30%; note: 0% is about no effect
Target sequence (Q8NER1 whole entry, looked up): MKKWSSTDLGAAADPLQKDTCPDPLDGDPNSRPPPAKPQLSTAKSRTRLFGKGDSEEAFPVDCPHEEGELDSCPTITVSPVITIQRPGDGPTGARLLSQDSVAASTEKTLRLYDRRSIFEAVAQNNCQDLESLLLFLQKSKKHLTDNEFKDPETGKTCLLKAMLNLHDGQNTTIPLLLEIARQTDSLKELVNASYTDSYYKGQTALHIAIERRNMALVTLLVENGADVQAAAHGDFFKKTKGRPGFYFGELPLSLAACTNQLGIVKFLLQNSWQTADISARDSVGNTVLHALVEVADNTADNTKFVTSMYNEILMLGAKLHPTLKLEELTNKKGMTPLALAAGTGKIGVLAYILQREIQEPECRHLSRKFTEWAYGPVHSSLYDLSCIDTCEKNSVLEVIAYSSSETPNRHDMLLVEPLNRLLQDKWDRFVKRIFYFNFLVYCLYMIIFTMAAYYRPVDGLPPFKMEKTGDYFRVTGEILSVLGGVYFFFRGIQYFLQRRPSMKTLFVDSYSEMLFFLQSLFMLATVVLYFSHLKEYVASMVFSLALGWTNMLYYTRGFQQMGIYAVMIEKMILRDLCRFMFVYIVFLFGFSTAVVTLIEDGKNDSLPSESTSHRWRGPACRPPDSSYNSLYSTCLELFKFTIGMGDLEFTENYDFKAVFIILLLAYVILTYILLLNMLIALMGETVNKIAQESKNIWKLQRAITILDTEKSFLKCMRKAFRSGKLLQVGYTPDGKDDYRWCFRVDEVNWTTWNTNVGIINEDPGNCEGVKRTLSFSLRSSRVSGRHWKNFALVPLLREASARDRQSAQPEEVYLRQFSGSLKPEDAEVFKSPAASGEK
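Fluo-8 calcium influx in TRPV1-expressing cells, kinetic read (ex 480/em 520 nm). Compound added and read 3 min for agonist activity, followed by capsaicin at EC20 final and 2 min further read for enhancement.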
Menin-MLL FL inh – inhibitors of human menin-MLL interaction, wild-type MLL peptide | 290,000 tested, under 10 active | Fluorescence polarization, fluorescein-MLL peptide displacement from menin | FP activity change, % at 61.4 µM; inconclusive = falling polarisation curve, or a change in total fluorescence; inactive = total fluorescence flat and polarisation flat or rising; no compound was filed as active; the % refers to the polarisation; negative = inhibition;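 note: % of control where 0% means no effect; inhibitors lower the polarisation; unlabelled MLL peptide was the positive control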
PINK1 expr mod – modulators of PINK1 expression; Potency, µM (titrated, usually from 76.6 µM), without a hit: top-dose activation (PINK1 increase), hits mostly activators; PINK1 immunofluorescence, high-content cytometry, 24 h; hit rate 0.2% among 410,000; active = well fitted activation curve with a large enough effect; inconclusive = small, poorly fitted or top-dose-only effect; inactive = flat fitted curve, though single readings scatter; cell line not stated here;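 note: potency is the fitted concentration of half-maximal effect; % of control where 0% means no effect; nearly all actives have a fitted effect of over 65% in size; a mitochondrial uncoupler was the plate control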
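PINK1 protein, normally rapidly degraded, was detected by immunofluorescence after 24 hour compound treatment of a stable cell line. Titration data (5 concentrations) came from laser-scanning cytometry, with CCCP-treated wells as controls.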
Sfp inh – Sfp phosphopantetheinyl transferase inhibition. Biochemical Sfp PPTase activity, qHTS. Potency, µM, for the others: max response, negative = inhibition, hits mostly inhibitors. hit rate 3.5% among 310,000. Q9F4F7. AID 1490; active = well fitted inhibition curve with a large enough effect; inconclusive = small, poorly fitted or top-dose-only effect, or another doubt; inactive = no such curve, though single readings can be large or run the other way;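 note: the enzyme is Sfp with the accession as filed and its product quenches rhodamine fluorescence; potency is the fitted concentration of half-maximal effect; 0% = enzyme reaction without inhibitor and -100% = no enzyme wells; top concentration of the series not given in the record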
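Fluorescence-quenching assay: 15 nM Sfp-PPTase preincubated 15 min at room temperature with compound, then 5 uM rhodamine-CoA and 12.5 uM BHQ-2-labelled YbbR peptide added. Fluorescence (ex 525/em 598 nm) read at start and after 30 min; difference gives rate.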
TRPML1 blocker – human mucolipin-1 channel inhibition | Q9GZU1 | TRPML1-inducible cells, Ca2+ dye fluorescence, FDSS; hits give low values; inhibition of EC80 agonist-evoked calcium signal | activity change, negative = inhibition, % (concentration not given with the values) | hit rate 0.02% among 390,000; in the data active means activity change below about -50%; inconclusive means about -30% to -50%; inactive means above about -30%;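 note: stimulus is agonist 54-4 at its EC80 concentration; % is set by controls: 0 for no effect and ±100 for the full control effect; compound concentration not given in the record; the text of the record puts the active cut at -80%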
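TRPML1-DL cells, Tet-induced overnight (~16 h, 37 °C) at 1,500 cells/well, were loaded with Ca8 no-wash dye plus quencher for 45-90 min at room temperature. Compounds were pinned during FDSS kinetic reading; agonist 54-4 at EC80 (4 uM final) then added.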
* = called active by the depositor; ? = inconclusive; . = not tested or not shown; [ ] = remark or other dose.

SMILES | TRPML1 ag | ClpP mod | TRPV1 potentiator | Menin-MLL FL inh | PINK1 expr mod | Sfp inh | TRPML1 blocker
CCN1CCN(C(=O)CCc2nc3ccccc3c(=O)[nH]2)CC1 | -0.1 | -8.7% | 7 | -1.3 | -0.1% | 13% | -3
C/C(=C\c1ccccc1)CN(C)CCN(C)C | . | . | 3 | -1.0 | . | 9% | .
C#CCNC(=O)C[C@@H]1C[C@@]2(C(=O)OC)CCCCC=C2N(CCCCCCCC)C1=O | -0.7 | 0.1% | . | . | 2.9% | . | .
Cc1cc(C)c2c(=O)cc(CSc3nnc(-c4ccccc4)n3C)[nH]c2c1 | 2.9 | 0.1% | . | . | 1.4% | . | -9
Cc1cc(/C=C2/C(=O)NN(c3ccccc3)C2=O)c(C)n1-c1cccc(O)c1 | 1.6 | . | 8 | 1.6 | -2.8% | -19% | 74
Cc1c(NC(=O)CCSCCc2ccccn2)cccc1[N+](=O)[O-] | -0.6 | . | -15 | -1.0 | 3.1% | -4% | 0
CC(C)Oc1ccccc1C1C=C(C(=O)O)Nc2ncnn21 (configuration not stated) | -0.1 | -9.7% | . | . | -0.3% | . | -14
CCN1C(=O)[C@@H]2[C@H](C1=O)[C@@H]1C(=O)Nc3ccccc3C(=O)N1[C@@H]2c1cccc(OC)c1 | -1.0 | -2.0% | 6 | . | -0.6% | . | -10
N#Cc1ccccc1COC(=O)CCCC1=NS(=O)(=O)c2ccccc2N1 | 0.7 | 0.7% | -12 | . | -0.4% | 12% | 3
CCNC(=O)CCc1nc(-c2ccc(C(C)(C)C)cc2)no1 | -1.5 | 0.7% | 1 | 0.0 | 2.0% | 2% | -11
COc1cccc(C(C)(O)c2nc(-c3ccc(F)c(Cl)c3)cs2)c1 (configuration not stated) | -0.1 | -4.1% | . | . | 1.2% | . | .
CCCCCCNC(=O)CSc1nccn1Cc1ccccc1 | -0.4 | -2.2% | -2 | 4.5 | . | 6% | 16
COc1ccc(-c2c(C)nn3c(N4CCN(c5cc(Cl)ccc5C)CC4)cc(C)nc23)cc1OC | -0.4 | -6.5% | . | . | 4.4% | . | -8
CCOC(=O)c1sc(NC(=O)c2ccc(C)o2)nc1C | -0.7 | -8.1% | -35 | 1.9 | 1.1%[38.3 µM] | 2% | -2
CCC(CO)Oc1cc(NCc2ccccc2C)c2ncn(C(C)C)c2c1 (configuration not stated) | -0.7 | -2.4% | . | . | -0.6% | . | 10
CCN(CC)S(=O)(=O)c1ccc(/C=C/C(=O)OCC(=O)Nc2cccc3ccccc23)cc1 | 0.0 | 0.9% | -4 | 1.5 | 3.4% | ? | 7
CCc1nc2c(OCc3ccc(C(=O)N(C)C)cc3)cccn2c1N(C)C(=O)Nc1ccccc1OC | -1.0 | -1.4% | . | . | -0.1% | . | .
C/C(N)=C(/C#N)C(=O)COC(=O)c1cccc(C)c1O | -1.0 | -10% | -16 | 0.6 | 15% | 7% | 24
CN(C)CCN(C(=O)C1CCN(S(=O)(=O)c2cccs2)CC1)c1nc2c(F)cccc2s1 | -0.5 | 1.6% | -10 | . | -0.9% | . | -2
COc1ccc(CC(=O)N(CC2CCCO2)c2nc3ccccc3s2)cc1 (configuration not stated) | -0.4 | -1.7% | 1 | 1.1 | 5.6% | -11% | -12
CCOC(=O)c1c(C)[nH]c(C(C)=NNC(=O)c2cccs2)c1C | 1.7 | -6.7% | . | . | 8.8% | . | 4
O=C(NCc1ccccc1)c1ccc2c(c1)sc1nc(-c3ccc(F)cc3)cn12 | 0.1 | -9.5% | . | . | 0.7% | . | 23
C[C@H]1CN=C(N(C)C)N1CCCC1CCCC1 | -0.3 | -1.2% | -9 | . | 1.0% | . | 8
CN(C(=O)CCNC(=O)Cn1ccc2ccccc2c1=O)c1ccc(Br)cc1 | -0.3 | . | -9 | -1.9 | 2.3% | 8% | -13
Cc1nc2nncn2c(NCc2ccc(Cl)cc2)c1C | 0.1 | -2.7% | . | . | 1.4% | . | 12
CCOC(=O)N1CCC(NC(=O)c2cc(C(=O)Nc3cccc(OC)c3)ccc2CO)CC1 | -0.4 | 0.9% | -3 | -1.5 | 0.1% | 12% | 5
CC1(C)Cc2c(cnn2-c2ccc(F)cc2)C(NC(=O)CCC(F)(F)F)C1 (configuration not stated) | -0.7 | ? | -28 | 0.7 | -0.1% | 12% | -19
C1=C(N2CCOCC2)/C(=C/c2nc3ccccc3[nH]2)CC1 | 2.0 | -25% | 6 | ? | 7.6% | -9% | 3
Brc1ccccc1-c1nnc(CSc2nnnn2-c2ccccc2)o1 | 1.5 | -1.3% | 12 | 9.3 | . | ? | 46
COc1cccc(CNC(=O)CCC2CCCN(Cc3cc(Cl)ccc3O)C2)c1 (configuration not stated) | -0.6 | . | -14 | -1.9 | 5.0% | 7% | -4

Exported as labelled records: part of the list above
> C/C(N)=C(/C#N)C(=O)COC(=O)c1cccc(C)c1O
  TRPML1 ag = -1.0	ClpP mod = -10%	TRPV1 potentiator = -16	Menin-MLL FL inh = 0.6	PINK1 expr mod = 15%	Sfp inh = 7%	TRPML1 blocker = 24

> CN(C)CCN(C(=O)C1CCN(S(=O)(=O)c2cccs2)CC1)c1nc2c(F)cccc2s1
  TRPML1 ag = -0.5	ClpP mod = 1.6%	TRPV1 potentiator = -10	Menin-MLL FL inh = .	PINK1 expr mod = -0.9%	Sfp inh = .	TRPML1 blocker = -2

Next part
SMILES | TRPML1 ag | ClpP mod | TRPV1 potentiator | Menin-MLL FL inh | PINK1 expr mod | Sfp inh | TRPML1 blocker
Cc1noc(C)c1COc1ccccc1C(=O)Nc1cccc(S(=O)(=O)N(C)C)c1 | 0.2 | -1.1% | -14 | . | -2.5% | . | 39
Cc1ccc(C(=O)N2CCOCC2)cc1S(=O)(=O)N1CCOCC1 | 1.1 | -4.5% | -1 | 1.4 | 2.7% | 22% | -7
Cc1ccccc1OS(=O)(=O)c1cn(C)c(=O)n(C)c1=O | 6.0 | 3.4% | 13 | -0.8 | 0.6% | 27% | -4
CC(=O)NC(C)(c1ccccc1)c1nc(-c2cncnc2)cs1 (configuration not stated) | 0.6 | 2.0% | . | . | 0.3% | . | -4
Cc1cc(C)nc(NC(=O)CSc2nn(C)c(=S)s2)n1 | 2.5 | 1.2% | -6 | 4.8 | -2.1% | -2% | -4
CCCC(=O)N1CCC1(C)C(=O)NS(=O)(=O)c1cc2c(cc1C)CCCS2(=O)=O (configuration not stated) | -0.3 | -2.1% | . | . | 0.6% | . | .
O=C(CSc1nc2cc(Cl)ccc2s1)c1cc2ccccc2o1 | 2.0 | -2.6% | 18 | ? | 4.5%[38.3 µM] | -1% | 30
Cc1ccc(NC(=O)CCNS(=O)(=O)c2ccc3c(c2)oc(=O)n3C)cc1 | -0.4 | 0.1% | 4 | 5.3 | -0.6%[38.3 µM] | -4% | 1
CCN(CC)C(=S)Nc1ccc([N+](=O)[O-])cc1 | -0.5 | 2.0% | -1 | 0.0 | 1.6% | 9% | 0
Cc1ccc(NC(=O)c2onc(C)c2Cl)cc1 | -0.9 | -3.7% | -17 | -1.0 | 5.2% | 3% | 9
CN(Cc1ccccc1NS(=O)(=O)c1ccc2ccccc2c1)C1CCCCC1 | 26 | 2.7% | -8 | 0.9 | 1.7% | -2% | ?
O=C(Cn1c(=O)oc2ccccc21)NCc1cccc(Cl)c1 | -1.2 | -2.3% | . | . | 1.4% | . | 25
CCOC(=O)[C@@H]1[C@H]2COc3ccccc3[C@@H]2N2C(=O)N(c3ccc(OC)cc3)C(=O)[C@]12C | -1.1 | 1.6% | . | . | 1.8% | . | -12
Cc1cccc(N2CCN(c3nc(C)cc(C)c3C#N)CC2C)c1 (configuration not stated) | 0.0 | . | -11 | -1.7 | 5.8% | -26% | 6
COC(=O)c1ccccc1NC(=O)COc1ccc(S(=O)(=O)NC(C)C)cc1 | 3.2 | -11% | 9 | 5.3 | 0.2% | -6% | -1
Cc1nc(NCc2ccc3c(c2)OCO3)c2oc3ccccc3c2n1 | 1.3 | -5.0% | 2 | -1.0 | -3.2%[38.3 µM] | -2% | 0
O=C(NNC(=O)C(O)c1ccccc1)NC1CCCCC1 (configuration not stated) | 0.8 | -0.6% | 8 | . | 0.7% | 1% | -11
Cc1nn(-c2ccccc2)c2sc(C(=O)Nc3ccccc3Br)cc12 | 5.3 | 4.3% | . | . | 12% | . | 48
CC(=O)Nc1ccc(N/C=C/C(=O)C(C)(C)C)cc1 | -0.7 | -3.4% | 4 | 2.7 | -3.5%[38.3 µM] | 9% | -9
COc1cccc(NC(=O)C2CCN(c3nnc(-n4c(C)ccc4C)s3)CC2)c1 | 0.2 | 1.0% | . | . | 0.5% | . | -1
Cc1ccc2nc(-c3ccccc3C)oc(=O)c2c1 | 0.8 | . | -5 | -0.2 | 2.6% | -6% | 5
COc1cc2[nH]c(=S)nc(NCc3cccc(Cl)c3)c2cc1OC | 0.6 | -5.6% | -3 | 1.8 | 0.6% | -8% | -4
CC1CC(C)CN(c2ccc(NS(=O)(=O)c3ccccc3)cc2C(=O)O)C1 (configuration not stated) | -0.7 | 0.9% | 4 | . | 0.6% | -12% | -6
CCCN(CCC)c1ccc(C2N=C(N)Nc3nc4ccccc4n32)cc1 (configuration not stated) | 1.9 | -2.3% | . | . | -1.1% | . | 13
COC(=O)c1c(NC(=O)c2cccc(S(=O)(=O)N3CCN(C)CC3)c2)sc(C)c1C | 0.2 | -2.2% | 3 | . | 1.5% | . | -14
O=C(Cn1cnc2c(OCc3ccccc3)ncnc21)N1CCN(c2ccccn2)CC1 | -0.2 | -27% | . | . | 2.8% | . | -11
COCCNC(=O)C1(C)CCN(C(=O)c2cccc(C)c2C)C1 (configuration not stated) | 0.5 | -0.7% | . | . | 1.4% | . | 1
CCCCn1nnnc1SCC(=O)N1CCCC1 | 1.3 | 0.5% | -3 | 6.3 | -2.0% | 19% | -5
CC(C)Cc1nnc(NC(=O)CCC(=O)N2CCN(c3ccc([N+](=O)[O-])cc3)CC2)s1 | -1.4 | 0.3% | -1 | -2.2 | -1.6% | -4% | 3
Cc1nc2ccccc2n1CCN1CCOCC1 | -0.7 | . | 23 | 0.0 | 0.5% | -22% | 15
CC(=O)c1ccc([C@@H]2C[C@]34CN(Cc5cccc(C(F)(F)F)c5)S(=O)(=O)[C@H]3C[C@H]2O4)cc1 | 1.1 | 0.6% | 27 | 1.6 | 3.0% | 6% | -14
Cc1ccc(S(=O)(=O)NCCCCCC(=O)N(C)C)cc1 | -0.6 | 0.2% | -4 | 2.2 | 0.9%[38.3 µM] | -3% | 13

Compound activity from PubChem BioAssay.
